Source: PubChem BioAssay
MLL AF4-AF9 inh: inhibitors of human MLL-AF4/AF9 interaction; AID 651704; inhibition, % at 10 µM; P42568; hit rate 0.47% among 350,000; AlphaScreen, biotin-AF4 peptide binding to FLAG-AF9;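 active = every replicate reaching a set inhibition limit, whatever the replicate mean, cut at about 25% in these data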;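 note: 0% = plate neutral control median and 100% = total signal loss; the record names both 10 and 1 µM as test concentration; the first replicate is given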
Target sequence (P42568 whole entry, looked up): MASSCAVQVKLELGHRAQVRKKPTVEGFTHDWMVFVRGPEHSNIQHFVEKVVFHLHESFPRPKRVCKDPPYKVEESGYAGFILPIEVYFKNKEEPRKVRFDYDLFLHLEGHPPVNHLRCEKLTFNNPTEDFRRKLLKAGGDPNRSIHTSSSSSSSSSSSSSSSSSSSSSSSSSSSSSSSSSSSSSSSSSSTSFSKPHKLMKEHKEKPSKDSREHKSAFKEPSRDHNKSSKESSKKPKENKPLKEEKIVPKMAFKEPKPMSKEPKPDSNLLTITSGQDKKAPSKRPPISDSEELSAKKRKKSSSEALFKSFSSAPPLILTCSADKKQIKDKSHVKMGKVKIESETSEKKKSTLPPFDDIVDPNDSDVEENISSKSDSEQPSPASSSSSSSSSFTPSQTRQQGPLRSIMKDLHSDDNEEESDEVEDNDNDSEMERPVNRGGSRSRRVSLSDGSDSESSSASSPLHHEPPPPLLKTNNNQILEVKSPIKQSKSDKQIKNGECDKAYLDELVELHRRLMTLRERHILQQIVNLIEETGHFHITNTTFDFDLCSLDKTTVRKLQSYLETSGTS
An asterisk follows results filed as active; & = joins results of further samples. Some of the compounds tested; rates above refer to the full screens.

entry	molecule	MLL AF4-AF9 inh
1	CCOC(=O)[C@]12CCC=C1N(Cc1ccc3c(c1)OCO3)C(=O)[C@H](CC(=O)NCCc1ccccc1OC)C2	1.7
2	CO[C@@H]1CN(C)C(=O)c2ccc(NC(=O)NC(C)C)cc2OC[C@@H](C)N(C(=O)C2CCC2)C[C@H]1C	-2.9
3	Clc1ccc(-c2nc3c4ccccc4ccn3c2CC2CCCCC2)cc1	-1.7
4	COCC#Cc1cnc2c(c1)C(=O)N([C@H](C)CO)C[C@H](C)[C@H](CN(C)C(C)=O)O2	-12
5	CC(C)NC(=O)N(C)C[C@H]1Oc2ccc(NC(=O)CCN3CCOCC3)cc2C(=O)N([C@@H](C)CO)C[C@H]1C	0.3
6	C/C=C/c1cnc2c(c1)C(=O)N([C@@H](C)CO)C[C@H](C)[C@H](CN(C)C(=O)NC1CCCC1)O2	-2.9
7	COc1ccc(NC(=O)C2Cc3c(-c4ccc(NC(C)=O)cc4)ccnc3O2)cn1 (centres undefined)	-1.7
8	COc1ccc(CN(C)C[C@H]2Oc3ccc(NC(=O)Cc4cn(C)c5ccccc45)cc3CC(=O)N([C@H](C)CO)C[C@@H]2C)cc1	5.2
9	CC(C)C#Cc1ccc2c(c1)O[C@H](CN(C)Cc1ccccn1)[C@H](C)CN([C@@H](C)CO)S2(=O)=O	3.2
10	O=C(NC1CCCCC1)N1CC(=O)N2[C@@H](CO)[C@@H](c3ccc(-c4cccnc4)cc3)[C@@H]2C1	-3.3
11	COc1ccc(CN(C)C[C@@H]2OCCCC[C@H](C)Oc3ccc(NC(=O)Nc4ccc5c(c4)OCO5)cc3C(=O)N([C@H](C)CO)C[C@@H]2C)cc1	18
12	C[C@@H]1CN([C@H](C)CO)C(=O)c2ccccc2-c2ccccc2CO[C@H]1CN(C)C(=O)Nc1ccccc1C(F)(F)F	1.4
13	CCCC(=O)Nc1ccc2c(c1)C(=O)N(C)C[C@@H](OC)[C@H](C)CN(C(=O)c1cccnc1)[C@H](C)CO2	0.0
14	C[C@H]1CN([C@@H](C)CO)C(=O)c2cc(NC(=O)Nc3ccccc3)ccc2O[C@@H]1CN(C)S(=O)(=O)c1ccccc1	-1.3
15	COCC(=O)Nc1ccc2c(c1)[C@H]1C[C@H](CC(=O)NCc3ccncc3)O[C@H](CO)[C@H]1O2	-6.5
16	CCCCn1nnnc1-c1nc2ccccc2[nH]c1=O	-0.3
17	O=S(=O)(NCC[C@@H]1CC[C@H](NS(=O)(=O)c2ccccc2Cl)[C@H](CO)O1)c1ccc(Cl)cc1	-1.9
18	Cc1cccc(S(=O)(=O)NC(=O)C2(C)CCN2C(=O)Cc2cccs2)c1 (centres undefined)	-1.9
19	O=C(Nc1ccc(Cl)cc1)c1csc(COCCO)n1	-1.4
20	Cc1noc(C)c1NC(=O)Nc1ccc2c(c1)C(=O)N([C@@H](C)CO)C[C@@H](C)[C@@H](CN(C)C(=O)Nc1ccccc1)OCCCC[C@@H](C)O2	-1.8

Reprinted from the part before: four compounds; new compounds follow.
entry	molecule	MLL AF4-AF9 inh
17	O=S(=O)(NCC[C@@H]1CC[C@H](NS(=O)(=O)c2ccccc2Cl)[C@H](CO)O1)c1ccc(Cl)cc1	-1.9
18	Cc1cccc(S(=O)(=O)NC(=O)C2(C)CCN2C(=O)Cc2cccs2)c1 (centres undefined)	-1.9
19	O=C(Nc1ccc(Cl)cc1)c1csc(COCCO)n1	-1.4
20	Cc1noc(C)c1NC(=O)Nc1ccc2c(c1)C(=O)N([C@@H](C)CO)C[C@@H](C)[C@@H](CN(C)C(=O)Nc1ccccc1)OCCCC[C@@H](C)O2	-1.8
21	C[C@@H]1CN([C@H](C)CO)C(=O)c2cc(NC(=O)CCCCCC(=O)Nc3ccccc3N)ccc2O[C@H]1CN(C)Cc1ccc(-c2ccccc2)cc1	0.1
22	O=C(C[C@H]1CC[C@@H]2[C@H](COC[C@@H](O)CN2C(=O)Nc2ccc(F)cc2)O1)NCC1CC1	4.1
23	C[C@H](CO)N1C[C@H](C)[C@@H](CN(C)CC2CC2)Oc2cc(-c3cccc(C#N)c3)ccc2S1(=O)=O	1.0
24	COc1ccc(NC(=O)Nc2ccc3c(c2)C(=O)N([C@@H](C)CO)C[C@@H](C)[C@H](CN(C)C(=O)Nc2ccc(C(F)(F)F)cc2)OCCCC[C@@H](C)O3)cc1	-12
25	COC(=O)[C@]12CCCCC=C1N(CCC1=CCCCC1)C(=O)[C@H](CC(=O)N1CCN(C(=O)C3CC3)CC1)C2	-2.6
26	O=C(C[C@@H]1C=C[C@@H](NC(=O)CN2CCOCC2)[C@@H](CO)O1)NCCc1ccncc1	-3.9
27	C[C@H](CO)N1C[C@H](C)[C@H](CN(C)Cc2ccccc2)Oc2c(NC(=O)c3ccncc3)cccc2C1=O	0.6
28	CN(CCc1ccccc1)C(=O)c1cccc(NC(=O)Cc2cccc(NC(=O)C3CCN(C(=O)C4CC4)CC3)c2)c1	-0.3
29	CN1CCN(C(=O)C[C@H]2CC[C@H]3[C@@H](COC[C@@H](O)CN3S(=O)(=O)c3cccc(F)c3)O2)CC1	-0.8
30	C[C@H]1CN([C@@H](C)CO)C(=O)c2cc(C#Cc3ccc(F)cc3)cnc2O[C@@H]1CN(C)CC1CCOCC1	6.8
31	COc1ccc(NC(=O)Nc2ccc3c(c2)C(=O)N([C@@H](C)CO)C[C@@H](C)[C@@H](CN(C)C(=O)C2CCCCC2)OCCCC[C@H](C)O3)cc1	-7.4
32	CCCC#Cc1cnc2c(c1)C(=O)N([C@H](C)CO)C[C@H](C)[C@@H](CN(C)C(=O)NC1CCCC1)O2	1.2
33	C[C@H](CO)N1C[C@H](C)[C@@H](CN(C)S(=O)(=O)c2cn(C)cn2)OCCCC[C@H](C)Oc2ccc(NC(=O)CCCCCC(=O)Nc3ccccc3N)cc2C1=O	1.4
34	CCCN1C[C@H](C)[C@H](OC)CN(C)C(=O)c2ccc(NC(=O)c3ccccc3)cc2OC[C@@H]1C	-3.0
35	O=C(C[C@H]1CC[C@H]2[C@@H](COC[C@@H](O)CN2Cc2nccs2)O1)NCc1ccccc1Cl	-1.5
36	COc1ccc(-c2cc(NC=O)c3ncc(-c4ccccc4)n3c2)cc1OC	1.7
37	C[C@H](CO)N1C[C@H](C)[C@H](CN(C)Cc2ccccc2F)Oc2ncc(C#CCN(C)C)cc2C1=O	0.7
38	Cc1noc(C)c1NC(=O)Nc1ccc2c(c1)C(=O)N([C@@H](C)CO)C[C@@H](C)[C@@H](CN(C)S(=O)(=O)c1ccc(Cl)cc1)O2	0.4
39	O=C(C[C@@H]1CC[C@@H]2[C@H](COC[C@@H](O)CN2Cc2nccs2)O1)NCc1ccc(-c2ccccc2)cc1	0.0
40	Cc1ccc(S(=O)(=O)N(C)C[C@@H]2Oc3ccc(NC(=O)c4ccncc4)cc3C(=O)N([C@@H](C)CO)C[C@@H]2C)cc1	-2.3
41	C[C@@H]1CN([C@H](C)CO)C(=O)c2cc(NC(=O)Nc3ccc4c(c3)OCO4)ccc2O[C@@H]1CN(C)Cc1ccncc1	2.4
42	CS(=O)(=O)N1CC(=O)N2[C@@H](CO)[C@@H](c3ccc(Br)cc3)[C@@H]2C1	-6.3
43	C[C@@H]1CN([C@@H](C)CO)C(=O)c2ccccc2-c2ccccc2CO[C@H]1CN(C)C(=O)Nc1ccccc1	-2.8
44	C[C@H](NC(=O)C[C@@H]1C[C@@H]2c3cc(NS(=O)(=O)c4ccc(F)cc4)ccc3O[C@@H]2[C@@H](CO)O1)c1ccccc1	4.1
45	COc1ccc(NC(=O)N2CCCCN3[C@@H](CO)[C@@H](c4ccc(C#Cc5ccccn5)cc4)[C@@H]3C2)cc1	13
46	CC(=O)Nc1nc2[nH]ccc2c(=O)[nH]1	-6.0
47	COc1ccc(S(=O)(=O)N(C)C[C@H]2Oc3ccc(NC(=O)Nc4ccc5c(c4)OCO5)cc3CC(=O)N([C@@H](C)CO)C[C@H]2C)cc1	8.5
48	C[C@@H](NC(=O)C[C@H]1CC[C@H]2[C@@H](COC[C@@H](O)CN2Cc2ccc(C(F)(F)F)cc2)O1)c1ccccc1	-3.1
49	C[C@@H]1CCCCO[C@@H](CN(C)Cc2ccc(C(F)(F)F)cc2)[C@@H](C)CN([C@H](C)CO)C(=O)c2cc(NS(=O)(=O)c3ccccc3)ccc2O1	-1.8
50	COc1ccccc1NC(=O)Nc1ccc2c(c1)OC[C@@H](C)N(Cc1ccccc1C(=O)O)C[C@@H](C)[C@H](OC)CN(C)C2=O	2.2
51	C[C@@H]1CN([C@@H](C)CO)C(=O)Cc2cc(NC(=O)Nc3ccc(C(F)(F)F)cc3)ccc2O[C@@H]1CN(C)Cc1ccc(-c2ccccc2)cc1	-0.9
52	CO[C@@H]1CN(C)C(=O)c2cc(NC(=O)C3CC3)ccc2OC[C@@H](C)N(CCC(F)(F)F)C[C@@H]1C	-1.1
53	COc1ccc(NC(=O)N(C)C[C@@H]2Oc3ccc(NC(=O)Nc4ccc(C(F)(F)F)cc4)cc3CC(=O)N([C@@H](C)CO)C[C@@H]2C)cc1	4.2
54	C[C@H](CO)N1C[C@H](C)[C@H](CN(C)Cc2ccccc2)Oc2ncc(/C=C/c3ccccc3)cc2C1=O	18&19
55	C[C@@H]1CN([C@@H](C)CO)C(=O)c2cc(-c3ccc(F)cc3)cnc2O[C@@H]1CN(C)C(=O)c1cccnc1	-3.1
56	C[C@H]1CN([C@@H](C)CO)C(=O)c2cccc(NC(=O)C3CCCCC3)c2O[C@H]1CN(C)Cc1ccc2c(c1)OCO2	-0.8
57	C[C@@H]1CN([C@@H](C)CO)S(=O)(=O)c2ccc(C#CC(C)(C)O)cc2O[C@@H]1CN(C)C(=O)C1CCC1	-3.7
58	C[C@H]1CN([C@@H](C)CO)C(=O)c2cc(NC(=O)CCC(F)(F)F)ccc2O[C@@H]1CN(C)C(=O)Nc1ccccc1	-12
59	CCCNC(=O)N[C@@H]1CC[C@H](CC(=O)NC2CCC2)O[C@@H]1CO	3.2
60	COc1cccc(C#Cc2ccc([C@H]3[C@@H](C#N)N(C(=O)C4CC4)[C@@H]3CO)cc2)c1	-1.4

Filtered by structure: the entries above containing a cyano group
entry	molecule	MLL AF4-AF9 inh
23	C[C@H](CO)N1C[C@H](C)[C@@H](CN(C)CC2CC2)Oc2cc(-c3cccc(C#N)c3)ccc2S1(=O)=O	1.0
60	COc1cccc(C#Cc2ccc([C@H]3[C@@H](C#N)N(C(=O)C4CC4)[C@@H]3CO)cc2)c1	-1.4

Further results
entry	molecule	MLL AF4-AF9 inh
61	C[C@@H]1CCCCO[C@H](CN(C)Cc2ccccc2)[C@H](C)CN([C@H](C)CO)C(=O)c2cc(NC(=O)C3CCCCC3)ccc2O1	14
62	CCC(=O)N(C)C[C@H]1Oc2ncc(-c3ccccc3OC)cc2C(=O)N([C@H](C)CO)C[C@@H]1C	-2.7
63	CCNC(=O)C1(C)CCN(Cc2ccccc2C#N)C1 (centres undefined)	0.0
64	COc1cc(OC)nc(Nc2nc(C(N)c3ccccc3Cl)cs2)n1 (centres undefined)	7.4
65	CNc1cc(-c2ccc(OC)c(OC)c2)ncn1	0.5
66	O=C(C[C@H]1CC[C@H]2[C@@H](COC[C@H](O)CN2S(=O)(=O)c2ccccc2)O1)N1CCOCC1	-12
67	C[C@@H]1CN([C@H](C)CO)S(=O)(=O)c2ccc(C#Cc3cccnc3)cc2O[C@H]1CN(C)C(=O)CN(C)C	0.0
68	C[C@H]1CN([C@@H](C)CO)C(=O)Cc2cc(NC(=O)NC3CCCCC3)ccc2O[C@H]1CN(C)C(=O)Nc1ccc2c(c1)OCO2	0.5
69	CNC[C@@H]1OCc2cnnn2CCCC(=O)N([C@@H](C)CO)C[C@H]1C	-2.5&-1.0&-5.2
70	C[C@@H]1CN([C@H](C)CO)C(=O)CCCn2nncc2CO[C@@H]1CN(C)C(=O)Nc1ccc(F)cc1	-2.5
71	COc1ccc(S(=O)(=O)Nc2ccc3c(c2)C(=O)N([C@@H](C)CO)C[C@H](C)[C@@H](CN(C)C(=O)C2CCCCC2)OCCCC[C@@H](C)O3)cc1	3.2
72	COc1cc(CN2CC3(CCN(C(=O)CN4CCOCC4)CC3)c3c(n(C)c4cc(OC)ccc34)[C@H]2CO)cc(OC)c1	1.3
73	Cc1noc(C)c1S(=O)(=O)N(C)C[C@@H]1OCCCC[C@H](C)Oc2ccc(NS(=O)(=O)c3cn(C)cn3)cc2C(=O)N([C@@H](C)CO)C[C@H]1C	-2.0
74	CCCC#Cc1ccc([C@H]2[C@@H](CO)N(S(C)(=O)=O)[C@H]2C#N)cc1	-0.9
75	CO[C@H]1CN(C)C(=O)c2cc(NC(C)=O)ccc2OC[C@@H](C)N(CC2CC2)C[C@H]1C	-0.4
76	C[C@H]1CN([C@@H](C)CO)C(=O)c2cccc(NS(=O)(=O)c3ccccc3)c2O[C@H]1CN(C)Cc1ccc(-c2ccccc2)cc1	-2.7
77	CN(C)C(=O)C[C@H]1C[C@@H]2c3cc(NC(=O)NC4CCCC4)ccc3O[C@@H]2[C@H](CO)O1	-0.2
78	C[C@@H]1CN([C@@H](C)CO)C(=O)c2cc(NS(=O)(=O)c3cn(C)cn3)ccc2O[C@@H](C)CCCCO[C@@H]1CN(C)C(=O)C1CCCCC1	1.6
79	CCCC(=O)Nc1ccc2c(c1)C(=O)N(C)C[C@@H](OC)[C@@H](C)CN(CC1CCCC1)[C@@H](C)CO2	-3.6
80	CCCC(=O)Nc1ccc2c(c1)C(=O)N(C)C[C@@H](OC)[C@@H](C)CN(Cc1ccccn1)[C@H](C)CO2	-0.3
81	COCC(=O)N1CC2(C1)[C@@H](c1ccccc1)[C@@H](CO)N2C(=O)NC1CCCC1	-2.0
82	C[C@H](CO)N1C[C@H](C)[C@@H](CN(C)Cc2ccc(-c3ccccc3)cc2)Oc2c(NC(=O)c3ccc(-c4nccs4)cc3)cccc2C1=O	-2.2
83	O=C(C[C@H]1C=C[C@@H](NC(=O)C2CCC2)[C@@H](CO)O1)NCc1ccccc1Cl	-10
